High-throughput results (PubChem BioAssay)
Vif TR-FRET – HIV-1 Vif–A3G interaction blockers – biochemical, TR-FRET, GST-Vif 1-94, biotin-A3G peptide, dose response retest, primary screen (AID 1117319) | TR-FRET GST-Vif / biotin-A3G peptide binding; higher % means a stronger effect; test concentration not given here; strong numbers were not always called active | one-dose inhibition, %; IC50 in µM for titrated hits | actives 0.57% (n = 260,000);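 active means above the screen mean plus three standard deviations and confirmed in dose response; inconclusive means results disagree or hit not tested in dose response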;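 further: Vif residues 1-94 fused to GST binding biotinylated APOBEC3G peptide 110-148; 0% = full assay without inhibitor and 100% = GST in place of GST-Vif; retest series ran down from 100 µM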
UCH37 inh – human UCH37 deubiquitinating enzyme inhibition. Q9Y5K5. purified proteasome/UCH37, Ub-AMC cleavage fluorescence. actives 0.33% (n = 330,000). inhibition, % (test concentration not listed);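 active means mean of two replicates above 20%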;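 further: 0% = compound-free wells with enzyme and 100% = wells lacking proteasome; stock transfer was 100 nL into about 20 µL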
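Schedule: 30 min plus 25 min, room temperature / Material: human UCH37 within purified proteasomes / Technique: AMC fluorescence intensity at 355/460 nm / Buffer or medium: pH 7.4 Tris-HCl (50 mM) with ovalbumin, ATP-MgCl2, DTT / Controls: wells without proteasome as full block, compound-free enzyme plus substrate as uninhibited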
LANA-H2B inh – blocks KSHV LANA binding to histone H2A/H2B; Q9QR71; cell-free LANA-H2A/H2B peptide, fluorescence polarization; inhibition, % (concentration not given with the values); actives 0.6% (n = 320,000); AID 2629; in the data active means inhibition mostly above about 10%, no sharp cut-off; inactive means mostly below about 6.7%;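 further: stock transfer was 7.5 nL into about 10 µL; 0% = median of vehicle wells and 100% = median of positive control wells; one replicate is shown; the record names a cut of 25% in any replicate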
Target sequence (Q9QR71 whole entry, looked up): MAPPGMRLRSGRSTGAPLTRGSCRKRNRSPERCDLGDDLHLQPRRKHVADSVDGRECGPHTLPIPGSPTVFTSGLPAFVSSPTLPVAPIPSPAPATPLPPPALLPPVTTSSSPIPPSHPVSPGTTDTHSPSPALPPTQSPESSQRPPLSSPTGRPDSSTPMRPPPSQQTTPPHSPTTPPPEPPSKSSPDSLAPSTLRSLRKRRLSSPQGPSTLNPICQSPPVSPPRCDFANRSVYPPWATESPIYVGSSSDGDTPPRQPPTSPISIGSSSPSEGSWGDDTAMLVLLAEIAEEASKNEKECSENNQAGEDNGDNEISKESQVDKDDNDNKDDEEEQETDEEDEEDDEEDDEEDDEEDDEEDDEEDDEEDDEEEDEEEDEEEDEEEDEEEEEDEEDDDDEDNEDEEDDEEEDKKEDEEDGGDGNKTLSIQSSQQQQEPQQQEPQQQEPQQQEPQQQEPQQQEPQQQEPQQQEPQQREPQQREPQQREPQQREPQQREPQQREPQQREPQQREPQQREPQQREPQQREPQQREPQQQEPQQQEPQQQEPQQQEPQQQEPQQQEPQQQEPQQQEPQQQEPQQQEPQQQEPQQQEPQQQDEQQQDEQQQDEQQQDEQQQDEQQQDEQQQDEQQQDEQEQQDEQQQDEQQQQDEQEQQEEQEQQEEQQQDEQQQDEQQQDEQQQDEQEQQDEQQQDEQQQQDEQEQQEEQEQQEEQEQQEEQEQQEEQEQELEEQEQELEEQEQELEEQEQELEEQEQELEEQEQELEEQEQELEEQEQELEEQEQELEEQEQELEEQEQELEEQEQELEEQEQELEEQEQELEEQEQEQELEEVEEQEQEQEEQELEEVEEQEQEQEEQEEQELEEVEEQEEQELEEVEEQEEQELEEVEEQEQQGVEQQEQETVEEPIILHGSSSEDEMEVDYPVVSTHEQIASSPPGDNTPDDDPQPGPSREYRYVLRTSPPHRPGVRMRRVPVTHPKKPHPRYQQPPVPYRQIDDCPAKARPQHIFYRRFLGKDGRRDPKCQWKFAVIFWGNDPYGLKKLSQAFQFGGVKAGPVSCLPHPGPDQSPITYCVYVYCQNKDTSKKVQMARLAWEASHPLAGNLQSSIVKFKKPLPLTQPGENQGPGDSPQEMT
B2AR ag – activates human beta-2 adrenergic receptor causing internalization | P07550 | Am2.2-beta2AR cells, FAP receptor internalization, flow cytometry; reference of the scale not given here | response, % (test concentration not listed) | actives 0.43% (n = 340,000);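 active means response above a set limit, near 3 SD of response in nonfluorescent compounds, cut at about 42% in these data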;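 further: stock transfer was 100 nL into about 11 µL; a reference agonist was the positive control; negative values mostly stem from fluorescent compounds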
Bfl-1 A1 inh – inhibitors of the anti-apoptotic protein A1, read as caspase activation. MEF A1-2A-BIM cells, Caspase-Glo 3/7 luminescence, 3 h; percent of clofoctol response, vehicle zero. actives 0.066% (n = 330,000). caspase activation, % (no concentration beside the values);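 active means over half of replicate activation scores above 10%, or exactly half above 10 with the replicate mean above 10; inconclusive means replicate mean below 10 yet half the replicates above 10; inactive means over half of replicates below 10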;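 further: wells of about 30 µL received 50 nL stock; many hits fall short of the cut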
HNF4A DNA FP – change in binding of human HNF4 alpha to DNA; actives 0.3% (n = 360,000); HNF4a-FITC DNA binding, fluorescence polarization, 1 h; AID 1224865; activity change, % at 10 µM; P41235; in the data active means activity change above about 30%, passing the limit was not always enough;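 further: controls were the assay level and a saturating level of protein; the project sought stronger binding though the title names inhibitors; some compounds called inactive have numbers as strong as hits; positive values seem to mean higher polarization but the record does not say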
E coli growth – inhibitors of Escherichia coli growth; OD600, 23 h; active compounds read low; OD600 absorbance (test concentration not listed); actives 0.21% (n = 330,000);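 active means OD600 absorbance below the run mean of sample wells minus 3.6 SD, in any replicate, cut at about 0.56 in these data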;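 further: stock transfer was 300 nL into about 60 µL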
Numbers without * were called inactive; ? = inconclusive; · = not tested or not shown; & = joins results of further samples. No enrichment for hits. About 2.1% of those tested had a hit in this group.

Results follow in this order: Vif TR-FRET | UCH37 inh | LANA-H2B inh | B2AR ag | Bfl-1 A1 inh | HNF4A DNA FP | E coli growth
1: COc1cc(C(=O)NCCC(=O)N2CCCCC2)cc(OC)c1OC
  -1.6% | 1.6 | -3.9 | -4.0 | 0.0 | -0.2 | 0.693
2: CC(C)Oc1ccc(CN2CCC(n3nccc3NC(=O)CCc3ccccc3)CC2)cc1
  · | 0.8 | 0.8 | 1.6 | -0.2 | -1.8 | 0.646
3: COc1cccc(-c2nn(-c3ccccc3)cc2CN(C)C(C)c2ccncn2)c1 (stereo unspecified)
  -15.8% | 4.6 | 5.5 | -10.0 | -0.7 | 0.8 | 0.712
4: Cc1c(C(=O)N2CCOCC2)sc(NC(=O)c2ccccc2F)c1C#N
  1.5% | 6.5 | 11.7 | 9.4 | -0.8 | 1.7 | 0.652
5: COc1ccc(NC(=O)CCNC(=O)c2ccco2)cc1OC
  · | 2.4 | -8.8 | -7.5 | 0.4 | -1.0 | 0.692
6: Cc1cccc(CCNC(=O)CC2C(=O)NCCN2Cc2ccc(F)c(F)c2)n1 (stereo unspecified)
  ? | 0.1 | -2.1 | 14.2 | 0.3 | -2.1 | 0.643
7: CCOC(=O)c1c(C)n(CC)c2ccc(OC(=O)c3ccc([N+](=O)[O-])cc3)cc12
  1.5% | 2.1 | 3.7 | 0.4 | -0.1 | 0.9 | 0.712
8: COc1ccccc1-c1n[nH]c(=S)n1-c1ccccc1
  -16.2% | 1.6 | 0.9 | 3.7 | 0.2 | -1.9 | 0.732
9: COc1cc(/C=N/Nc2ccccc2[N+](=O)[O-])ccc1OC(=O)c1ccccc1F
  -5.3% | · | 1.8 | -2.1 | -8.4 | 4.4 | ·
10: COC(=O)c1ccccc1NC(=O)COc1ccc(S(=O)(=O)N2CCCC2)cc1C
  -7.7%&1.1% | 0.7 | 4.6 | 4.8 | 0.5 | -0.7 | 0.719
11: CCN(CC)c1ccc(C(=O)c2cnc(/N=C/N(C)C)s2)cc1
  6.1% | · | -9.7 | 7.3 | -0.5 | 2.2 | ·
12: O=C(CN1C(=O)NC2(CCCCCCC2)C1=O)N1CCN(C(=O)c2ccco2)CC1
  ? | 2.0 | 1.5 | 13.6 | 0.0 | 0.6 | 0.765
13: CC1(C)Cc2c(sc3nc(-c4ccccc4)oc(=O)c23)CO1
  -7.9% | -4.7 | -5.9 | 5.9 | -5.2 | 1.3 | 0.661
14: Cc1ccc(C(C)C)c(OCC(O)CN2CCc3ccccc3C2)c1 (stereo unspecified)
  -2.4% | 2.1 | 3.2 | -0.1 | -1.0 | -3.4 | 0.597
15: CCC(=O)N(CCC(Cc1ccccc1)c1ccc2c(c1)OCO2)Cc1ccccc1F (stereo unspecified)
  18.9% | 5.9 | -2.9 | -1.5 | 1.8 | -18.5 | 0.674
16: COC(=O)C1=C(NC(=O)C2CCCCC2)CCS1
  · | 4.7 | · | 2.8 | · | 1.5 | 0.717
17: COC(=O)CSc1ncc(C#N)c(N)n1
  13.8% | -4.0 | -1.3 | 8.0 | 0.5 | 1.6 | 0.615
18: O=C(O)Cc1sc(-c2ccccc2Cl)nc1-c1ccccc1
  -3.3% | 3.1 | 0.4 | 0.5 | 0.1 | 1.6 | 0.713
19: O=C(Nc1nncs1)c1ccccc1NS(=O)(=O)c1cccs1
  -4.3%&-1.6% | -147.1 | 0.3 | 1.1 | -0.3 | -0.5 | 0.639
20: Cc1ccc(S(=O)(=O)N(CC(=O)Nc2cccc(C)c2C)C(=O)N2CCN(C)CC2)cc1
  -9.4% | 5.2 | · | -4.7 | · | -1.6 | 0.644
21: C[C@@H]1C(NC(=O)c2ccccc2)CC2CC1C2(C)C (stereo partly specified)
  · | 4.2 | -1.4 | 2.8 | 0.1 | -0.3 | 0.721
22: CCN1CCc2c(OCC(=O)Nc3ccccc3)cccc2C1=O
  · | 6.1 | -7.2 | -10.4 | 0.6 | 0.2 | 0.702
23: Cc1ccc(OCCn2c(C)c(/C=N/n3cnnc3)c3ccccc32)cc1
  8.8% | · | -1.6 | 4.3 | 0.4 | -0.3 | ·
24: COc1ccc(C(=O)N2CCN(Cc3ccc(OC)c(OC)c3)CC2)cc1
  -5.7% | 3.0 | 0.8 | 1.1 | -0.6 | -0.1 | 0.684
25: COc1ccc(C(CNC(=O)CN(C)S(=O)(=O)c2ccc(C)cc2)N2CCCC2)cc1 (stereo unspecified)
  -0.7% | 0.8 | 1.8 | 2.8 | -0.3 | -0.3 | 0.698
26: Cc1nc2c(C)cccc2c2c1COC2
  · | -9.0 | 2.4 | -4.2 | 0.0 | 3.5 | 0.664
27: COCCN(C(=O)Nc1ccc(OC)cc1OC)C1CCN(C(C)=O)CC1
  -5.7% | -1.2 | -5.6 | -5.0 | 0.1 | -2.7 | 0.726
28: CCN1C(=O)C(=O)N(CC(=O)Nc2cc(C)ccc2C)C1=O
  · | 2.7 | 65.4* | -1.5 | 0.2 | 3.6 | 0.679
29: O=C(Nc1ccccc1)Nc1ccccc1C(=O)NCC1CC1
  -1.1% | -6.0 | -2.8 | 7.8 | -5.5 | -3.9 | 0.668
30: Cc1scc(-c2n[nH]c(=S)n2C(C)c2ccccc2)c1C (stereo unspecified)
  -0.6% | 1.3 | -3.6 | -0.3 | -0.8 | 0.2 | 0.689

Brought forward from above: 2 entries, followed by the next part.
Results follow in this order: Vif TR-FRET | UCH37 inh | LANA-H2B inh | B2AR ag | Bfl-1 A1 inh | HNF4A DNA FP | E coli growth
29: O=C(Nc1ccccc1)Nc1ccccc1C(=O)NCC1CC1
  -1.1% | -6.0 | -2.8 | 7.8 | -5.5 | -3.9 | 0.668
30: Cc1scc(-c2n[nH]c(=S)n2C(C)c2ccccc2)c1C (stereo unspecified)
  -0.6% | 1.3 | -3.6 | -0.3 | -0.8 | 0.2 | 0.689
31: CCCS(=O)(=O)N1CCC(C(=O)NCc2ccc(F)cc2)CC1
  ? | -7.5 | 0.1 | 1.6 | -0.2 | -0.8 | 0.667
32: O=C(NN=C1CCCC1)c1[nH]c2ccc(Cl)cc2c1-c1ccccc1
  -4.5% | -0.2 | -1.1 | 25.6 | -1.1 | -1.5 | 0.659
33: CCCc1ccc(C(=O)CN2C(=O)C(=O)N(C3CCCC3)C2=O)cc1
  3.5% | 2.8 | 2.1 | 4.7 | -0.8 | -0.1 | 0.643
34: CCCNC(=O)c1onc(CSc2ccc(F)cc2)c1C(=O)NCC1CC1
  · | -0.9 | -6.0 | -10.4 | 1.5 | -1.8 | 0.682
35: Cc1cccc(-c2cc3nc(C)cc(NCCCn4ccnc4)n3n2)c1
  -6.3% | -6.9 | -2.5 | -11.2 | -0.6 | 4.0 | 0.665
36: CC1CCC(NC(=O)C(Cc2ccccc2)n2cccc2)CC1 (stereo unspecified)
  1.3% | 1.5 | -0.7 | -9.2 | 0.2 | 0.4 | 0.735
37: Cn1c(=O)[nH]c(=O)c2c1nc(SCC(O)CCl)n2Cc1ccccc1 (stereo unspecified)
  -10.2% | 0.9 | -1.6 | 3.4 | 0.1 | 1.9 | 0.67
38: Cc1ccc([C@H]2C(C(=O)O)=CC[C@@H](c3ccc(Cl)c(Cl)c3)N2S(=O)(=O)c2ccc(C)cc2)cc1
  · | 2.7 | · | 9.7 | · | -0.5 | 0.645
39: CCn1c(Cc2ccc(OC)cc2)nnc1SCC(=O)Nc1nc2ccccc2s1
  ? | -1.3 | -1.5 | -2.2 | 0.0 | 0.6 | 0.775
40: N#CCOC(=O)C1c2ccccc2Oc2ccccc21
  · | 3.4 | 0.3 | 11.5 | 1.5 | 0.8 | 0.694
41: CN(C)CCOC(=O)Cc1ccc(Cl)cc1
  2.4% | 2.3 | 0.0 | 3.7 | -1.1 | -3.0 | 0.74
42: COc1ccc2sc(N(CCCN(C)C)C(=O)c3ccc(S(=O)(=O)N4CCc5ccccc5C4)cc3)nc2c1
  · | · | 1.6 | 31.3 | 28.3* | 4.9 | ·
43: CCc1noc(C)c1C(=O)Nc1ccc(C)c(S(=O)(=O)N2CCCCCC2)c1
  -1.1% | -2.3 | 0.1 | 8.4 | -0.7 | 3.2 | 0.682
44: CCOC(=O)CCc1c(C)c2ccc(OCC(=O)OC(C)C)cc2oc1=O
  -4.8% | -116.5 | -2.1 | 5.8 | 0.5 | -1.3 | 0.697
45: COc1cc(NC(=O)C2CC2)c(OC)cc1NC(=O)CCC(=O)NC1CCN(Cc2ccccc2)CC1
  -0.6% | 0.2 | -2.6 | -9.9 | -0.3 | -0.7 | 0.665
46: Cc1ccc(-c2c3c(=O)n(C)c(=O)n(C)c3cn2Cc2cccnc2)cc1
  2.1% | -3.1 | -2.7 | 1.6 | 0.2 | -2.8 | 0.752
47: Cc1ccc(-c2nn(CC(=O)NCc3cc(-c4nn(C)c(=O)c5ccccc45)ccc3C)c(=O)c3ccccc23)cc1
  18.7% | 3.7 | -0.1 | 30.0 | -0.3 | -8.2 | 0.677
48: O=C(COc1ccc(/C=N/NC(=O)C(=O)N2CCCCCC2)cc1)Nc1ccccc1Cl
  · | · | · | -11.8 | 0.3 | -1.6 | ·
49: O=C(Nc1cc(Cl)ccc1O)c1snnc1-c1ccccc1
  4.4% | 5.2 | -7.8 | 17.1 | -0.7 | 0.0 | 0.612
50: CC1CC(C)CN(C(=O)c2ccc(NC(=O)c3ccc(=O)[nH]c3)cc2)C1 (stereo unspecified)
  · | 8.3 | -1.3 | -3.5 | 0.3 | 4.7 | 0.743
51: O=C(c1cccc([N+](=O)[O-])c1)c1cc2ccccc2o1
  · | 2.0 | 1.4 | -6.9 | 0.3 | -1.7 | 0.692
52: CC(=O)N(CN1C(=O)c2ccccc2C1=O)c1cccc(C)c1
  24.1% | -0.5 | -0.3 | -9.4 | 0.0 | -3.5 | 0.712
53: O=C(Nc1ccc(S(=O)(=O)N2CCCCCC2)cc1)c1ccc(Br)o1
  4.0% | 2.9 | -1.4 | 1.4 | -0.7 | 0.9 | 0.634
54: O=S(=O)(Nc1ccc(N2CCCCC2)cc1)c1ccccc1F
  · | 1.9 | 2.0 | 2.4 | -0.1 | 3.2 | 0.629
55: Cc1ccc(NC(=O)c2nc[nH]c2C(=O)NCCCCCCNC(=O)c2[nH]cnc2C(=O)Nc2ccc(C)cc2)cc1
  · | 1.1 | -3.4 | -4.2 | -1.0 | 2.3 | 0.727
56: COc1cccc2cc(C(=O)Nc3cc(Cl)ccc3N3CCOCC3)c(=O)oc12
  · | 4.1 | 5.4 | 18.9 | 1.3 | 1.3 | 0.716
57: COc1ccc(COC(=O)c2ccc3c(=O)n4c(nc3c2)CCC4)cc1F
  -9.1% | -20.8 | -4.3 | · | -0.3 | · | 0.664
58: COc1ccc(-c2noc(CN(C)Cc3ccccc3)n2)cc1
  · | -2.6 | -8.2 | -1.9 | 0.4 | 1.7 | 0.625
59: O=C(COc1cccnc1[N+](=O)[O-])Nc1ccccc1Sc1ccccc1
  · | 0.9 | -0.1 | -12.4 | 0.2 | -3.9 | 0.7
60: Cc1sc2nc(SCC(=O)N(C)Cc3ccccc3)n(-c3ccccc3)c(=O)c2c1C
  0.2% | -1.3 | -1.8 | -2.9 | -0.2 | 0.3 | 0.813
61: COc1ccc(CCNC(=O)CSc2nc(=O)n3cccc(C)c3n2)cc1OC
  8.1% | 6.9 | 1.7 | 1.8 | -0.6 | -4.0 | 0.701
62: Cc1cc(NS(=O)(=O)c2ccc(NC(=O)c3ccc(Br)o3)cc2)nc(C)n1
  2.3% | 1.3 | -1.0 | -6.5 | 0.2 | 1.3 | 0.697
